PV pol inh: poliovirus RNA polymerase inhibition; poliovirus polymerase elongation, fluorescence polarization; active compounds read low; % elongation, % (compound at 16.7 µg/mL); AID 588519; P03300; hit rate 0.66% among 150,000; in the data active = % elongation below about 90%; note: some results filed as inactive read as strong as hits
Target sequence (P03300 1749-2209 limits assumed): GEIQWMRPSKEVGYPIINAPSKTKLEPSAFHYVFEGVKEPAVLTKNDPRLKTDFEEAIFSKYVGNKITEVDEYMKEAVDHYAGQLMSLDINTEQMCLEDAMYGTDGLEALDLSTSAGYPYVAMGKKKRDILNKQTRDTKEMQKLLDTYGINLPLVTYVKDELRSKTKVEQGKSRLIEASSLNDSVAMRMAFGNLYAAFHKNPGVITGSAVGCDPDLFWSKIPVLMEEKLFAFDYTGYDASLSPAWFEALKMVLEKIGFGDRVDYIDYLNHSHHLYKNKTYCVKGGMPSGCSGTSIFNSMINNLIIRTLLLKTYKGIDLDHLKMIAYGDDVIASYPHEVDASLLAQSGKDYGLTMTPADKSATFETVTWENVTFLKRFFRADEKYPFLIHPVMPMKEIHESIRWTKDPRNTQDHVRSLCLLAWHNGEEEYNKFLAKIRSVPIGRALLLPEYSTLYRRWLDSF
MenB inh: inhibitors of Mycobacterium tuberculosis MenB enzyme. inhibition, %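 (about 12 µg/mL by stock and volumes)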. P9WNP5. hit rate 0.43% among 100,000. AID 540299. MenB enzyme assay, absorbance read-out; some hits fall short of the stated cut;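 active = mean of two replicates above 30%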;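 note: 0% = no compound and 100% = wells with inactive enzyme; the first replicate is given; strong numbers were not always called active; inactives centre near -10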
MbtI inh: MbtI salicylate synthase inhibition | hit rate 0.89% among 100,000 | purified MbtI enzyme, fluorescence intensity read-out | P9WFX0 | inhibition, %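 (about 17 µg/mL by stock and volumes)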;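 active = above 50% in both replicates, above 80% if mildly self-fluorescent; inactive = the rest, strongly fluorescent compounds included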;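 note: 0% = mean of negative and 100% = mean of positive controls; one replicate is shown; some compounds called inactive have numbers as strong as hits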
Target sequence (P9WFX0 whole entry, looked up): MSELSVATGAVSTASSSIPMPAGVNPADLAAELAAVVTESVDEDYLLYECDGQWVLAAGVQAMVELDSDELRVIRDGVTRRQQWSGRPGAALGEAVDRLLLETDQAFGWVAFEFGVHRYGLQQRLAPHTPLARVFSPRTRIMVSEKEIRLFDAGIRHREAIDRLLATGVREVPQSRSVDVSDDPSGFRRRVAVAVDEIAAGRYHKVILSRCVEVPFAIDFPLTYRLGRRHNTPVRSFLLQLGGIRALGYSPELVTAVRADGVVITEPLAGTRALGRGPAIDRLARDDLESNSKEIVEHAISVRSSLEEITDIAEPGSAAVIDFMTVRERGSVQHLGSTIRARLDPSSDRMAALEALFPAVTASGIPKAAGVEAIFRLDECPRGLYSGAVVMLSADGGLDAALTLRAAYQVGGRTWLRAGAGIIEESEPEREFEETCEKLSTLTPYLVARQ
PV pol inh intensity: second read-out of PV pol inh, no call of its own (marks repeat the call); % elongation; measured here: total intensity read-out; formula for this scale not given here;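 total fluorescence in place of polarization; lower means less elongation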
An asterisk follows results filed as active; · = no result given.

SMILES	PV pol inh	PV pol inh intensity	MenB inh	MbtI inh
CC1CC(C)CN(C(=O)c2ccc(-n3c(=S)[nH]c4ccccc4c3=O)cc2)C1 (configuration not stated)	101	102	-2	3
O=C(CCCn1c(=O)oc2ccccc21)NNc1c(F)c(F)cc(F)c1F	106	101	-23	-14
COC(=O)C1=C(NC(=O)Cc2cccs2)CCS1	100	103	5	-6
COc1ccc(CC(NC(C)=O)C(=O)NC2CCN(c3nc(OC)nc(OC)n3)CC2)cc1 (configuration not stated)	105	103	-33	-10
O=C(CCc1c[nH]c2ccccc12)N1CCn2c(nc3ccccc32)C1	103	105	-12	-9
COc1cccc(CN(C)C(=O)c2cc3ccccc3cc2OCc2c(C)noc2C)c1OC	100	103	-16	2
CC(=N)c1c(O)c2ccccc2oc1=O	104	103	-9	-1
COc1cc(/C=C/C(=O)O)ccc1O	99	100	-42	-4
c1ccc(-c2noc(NC3CC3)n2)cc1	101	103	0	-8
Clc1ccc(Cn2nnc3ccccc32)cc1Cl	104	98	-66	-1
Cn1cc(S(=O)(=O)Nc2ccc(Oc3c(Cl)cccc3Cl)nc2)cn1	103	102	-3	-10
COc1ccc(NC2=NS(=O)(=O)C(c3ccccc3)=C2C)cc1	101	102	1	6
O=C(O)CCNC(=O)c1cccnc1	98	94	-9	5
COc1ccc2cc(C(=O)O)ccc2c1	101	102	-2	81
CN(C)c1ncnc2c1ncn2C1OC(CO)C(N)C1O (configuration not stated)	102	105	4	·
O=C(NCC1COc2ccccc2O1)c1cccs1 (configuration not stated)	103	106	-22	-8
O=S(=O)(Cc1ccccc1)c1ccc(C(F)(F)F)cn1	105	113	-9	-8
N#Cc1ccccc1Cn1c(=O)n(-c2ccc(CC(=O)Nc3ccccc3)cc2)c(=O)c2sccc21	103	96	-3	11
Cc1[nH]c2nc3ccccc3n2c(=O)c1CCC(C)C	101	103	4	-6
Cc1ccc(-n2nc(C)c3c(C)onc3c2=O)cc1	104	107	-4	-15
CC1CN(c2ccc(NC(=S)NCc3ccco3)cc2)CC(C)O1 (configuration not stated)	105	102	-14	-6
CCOC(=O)[C@H](CCc1ccccc1)N[C@@H](C)C(=O)N1C(C(=O)O)C[C@@H]2CCC[C@@H]21 (some centres not stated)	87	145	5	-2
CC1CCCN(CC(C)(C)N)C1 (configuration not stated)	102	103	0	1
CC(C)(C)C(=O)NCc1ccc(C(=O)CSc2nnc(-c3cccs3)n2C2CC2)s1	110	113	-12	-3
O=C(CCC(=O)N1CCOc2ccccc21)Nc1ccccc1Br	99	101	16	-1
Next results
SMILES	PV pol inh	PV pol inh intensity	MenB inh	MbtI inh
O=C1CCCCCN1Cc1nnc(SCN2C(=O)c3ccccc3C2=O)n1-c1ccccn1	·	·	-18	-1
CCOC(=O)C1CCCN(C(=S)Nc2cccc(Cl)c2)C1 (configuration not stated)	101	100	-17	-7
CCN(CC(=O)NCc1cccs1)C(=O)c1ccc(N2CCCC2=O)cc1	101	98	-21	10
COc1ccc2c(-c3cccnc3)cc(=O)[nH]c2c1	99	108	11	-67
Cc1cccc(OCc2nnc(SCCN3C(=O)c4ccccc4C3=O)o2)c1	99	96	-8	34
CCCCNS(=O)(=O)c1ccc2c(c1)nc(C1CCN(S(=O)(=O)c3cccs3)CC1)n2CCCC	97	94	-11	-4
Cc1ccccc1NC(=S)N(CCC(C)C)C(C)c1ccncc1 (configuration not stated)	103	102	-12	-12
Cc1ccc(NC(=O)CC(C)S(=O)(=O)c2ccc3c(c2)SCC(=O)N3)cc1 (configuration not stated)	118	162	-28	-3
CCC(C(=O)Nc1nc2nccc(C)n2n1)c1ccccc1 (configuration not stated)	103	103	-4	-31
CCOc1ccc2nc(N=Nc3c(O)[nH]c(=O)[nH]c3=O)sc2c1	94	67	-84	10
Cc1nnc(SCCn2c(Br)nc3c2c(=O)[nH]c(=O)n3C)s1	104	106	-9	7
Cc1ccc(C(=O)NC2CN3CCC2CC3)cc1NC(=O)c1ccco1 (configuration not stated)	·	·	1	5
Cc1ccc(N2C(=O)CS/C2=C(/C#N)C(=O)NCC2CCCO2)cc1 (configuration not stated)	106	106	-107	7
CCc1c(C)c(C#N)c2nc3ccccc3n2c1NCCC(C)C	101	102	-59	-39
C(=N\OCc1cccc(CO/N=C/c2ccco2)c1)/c1ccco1	99	103	6	22
CCOC(=O)Cn1cc(Cl)ccc1=O	104	95	-19	8
Cc1c(C(=O)Nc2ccccc2Br)oc2ccc(S(=O)(=O)N3CCCC3)cc12	102	105	3	88
O=C(O)CNC(=O)c1ccco1	103	97	·	-1
CCOC(=O)/C(C#N)=N/Nc1sc(C(=O)OCC)c(C)c1C(=O)OCC	95	106	-11	6
CCC(=O)c1ccc(OCC(O)CN2CCOCC2)cc1 (configuration not stated)	101	104	6	-10
Cc1ccsc1C(=O)OCC(=O)N(C)c1ccccc1	100	107	·	16
O=C(CC1SCCNC1=O)Nc1ccccc1 (configuration not stated)	99	102	7	-3
c1ccc2c(c1)nc1n2CN(C2CCCCCC2)CN1	99	100	13	8
CC(NC(=O)c1ccc(-n2cccc2)cc1)c1ccccc1 (configuration not stated)	101	109	-4	-2
CC1(C)C2CC=C(/C=N/NC(=O)NC3CCCCC3)C1C2 (configuration not stated)	105	107	-5	-7

An excerpt from above, limited to MenB inh, MbtI inh and PV pol inh intensity.
canonical_smiles | MenB inh | MbtI inh | PV pol inh intensity
CC1CN(c2ccc(NC(=S)NCc3ccco3)cc2)CC(C)O1 (configuration not stated) | -14 | -6 | 102
CCC(C(=O)Nc1nc2nccc(C)n2n1)c1ccccc1 (configuration not stated) | -4 | -31 | 103

The list continues.
SMILES	PV pol inh	PV pol inh intensity	MenB inh	MbtI inh
O=C(c1cccs1)c1coc2c1cc(O)c1ccccc12	98	103	-78	-3
O=C(NCCN1C(=O)S/C(=C\c2ccc(Cl)cc2)C1=O)c1oc2ccccc2c1CSc1ncn[nH]1	99	99	-1	53
CN(C)c1nc(Oc2ccc(=O)n(C)n2)nc(N(C)C)n1	106	98	-22	·
CC(/C=C/c1ccccc1)NC(N)=O (configuration not stated)	100	104	10	-18
O=C(CSc1nncn1-c1ccccc1)NCC(F)(F)F	102	105	-17	9
COc1ccc(C2(C#N)CCOCC2)cc1	106	103	-11	·
CN1CCCN(C(=O)c2ccc(Cl)cc2)CC1	100	102	-44	-19
COC(=O)c1oc2c(c1C)C1(CCC2)SCCS1	99	99	-4	10
O=C1CC2CCCC(CN1)N2CC(=O)NCc1ccco1 (configuration not stated)	102	104	-20	0
C=CCN(C(=O)c1ccccc1SCC(=O)NCc1ccco1)c1nc2c(s1)CCCC2	106	102	-13	-1
Cc1cc(C)n2nc(SCc3ccccc3C(=O)N3CCN(c4ccc(F)cc4)CC3)nc2n1	108	110	-5	17
C=CCNC(=O)CC1CCCCC1	105	108	-7	·
O=C(CN1C(=O)C2CC=CCC2C1=O)N1CCSC1=NCc1ccccc1 (configuration not stated)	106	107	-20	-5
Cc1ccc2cccc(SC(=O)NCC3CCCO3)c2n1 (configuration not stated)	100	105	-26	·
CCc1cc2c(SCC(=O)N(C)C3CCS(=O)(=O)C3)ncnc2s1 (configuration not stated)	108	117	-12	1
CC(C(=O)Nc1ccccc1C#N)N(C)Cc1nc2ccccc2c(=O)[nH]1 (configuration not stated)	109	116	-66	-5
Cc1cc(C)c(C#N)c(SCC(=O)OC(C)C)n1	99	91	-24	-28
Cc1ccsc1C=Nc1ccc(C(N)=O)cc1	101	101	-46	13
Cc1ccccc1-n1nc(C)c2c(C(=O)NN)cc(-c3ccncc3)nc21	107	107	-5	-4
O=C1CC(c2ccco2)CC2=C1C(c1ccccc1)C1=C(N2)c2ccccc2C1=O (configuration not stated)	103	104	-7	12
N#CC1=C2SCC(O)(c3ccco3)N2C(=O)CC1c1ccccc1F (configuration not stated)	103	102	-149	-4
O=C(Nc1cccc2ccccc12)N1CCC(Nc2nc3ccccc3o2)CC1	105	102	-5	-76
COC(CNC(=O)CN1CCN(Cc2ccc(C)cc2)C1=O)OC	101	102	6	-5
CCOC(=O)/C(C#N)=C/c1ccc(-c2ccc(Cl)c(C(=O)OC)c2)o1	87	116	-79	-24
CCn1c(CCC(=O)N2CCN(c3ccccn3)CC2)nc2cc(S(N)(=O)=O)ccc21	55*	65*	-1	103
Next compounds follow:
SMILES	PV pol inh	PV pol inh intensity	MenB inh	MbtI inh
COc1cc2cc(C3CC(c4ccco4)=NN3C(C)=O)c(Cl)nc2cc1OC (configuration not stated)	107	105	-24	3
CC(C)C(NC(=O)c1cccs1)C(=O)NC1CCCCC1 (configuration not stated)	100	103	·	-4
CC(C)c1c(Br)c(=O)oc2c3c4c(cc12)CCCN4CCC3	105	222	-36	5
CC1CCN(CCCNC(=O)c2cc3c(=O)n(C)c4ccccc4c3s2)CC1	103	96	11	45
CC(=O)SCC(C)C(=O)Nc1ccccc1 (configuration not stated)	98	101	14	5
CCOC(=O)C1CCCN(C(=O)CSc2nc(N)c3ccccc3n2)C1 (configuration not stated)	101	106	-8	13
Cc1ccc(C=Nc2ccc(Br)cc2)cc1	101	106	7	-2
COc1ccc(-n2c(C(C)N3CCCCC3)n[nH]c2=S)cc1 (configuration not stated)	103	107	1	-6
COc1ccc(CCN2C(=O)C=CC2=O)cc1	102	107	·	93*
CC1CCCC(C)N1C(=O)c1cc2sccc2n1Cc1ccc(F)cc1 (configuration not stated)	102	98	-96	4
O=C(OCC1CCCN2CCCCC12)C1CCNCC1 (configuration not stated)	105	112	-11	·
CCCc1cc(=O)[nH]c(SCC(=O)NC2CCCC2)n1	100	107	-12	-9
CCOc1ccc(N2C(=O)CC(Sc3nc(O)c(CC)c(=O)[nH]3)C2=O)cc1 (configuration not stated)	103	106	-33	22
O=C1c2ccccc2C(O)(c2ccccc2)N1c1ccc2c(c1)OCCO2 (configuration not stated)	100	102	-4	-51
CC(C)C(=O)NCc1n[nH]c(=O)c2ccccc12	104	113	-30	0
CC(C)(C)C1(O)CC(C(F)F)=NN1C(=O)c1ccccc1 (configuration not stated)	101	102	-16	7
Cc1cc(Cl)ccc1OC(=O)c1sccc1C	101	97	·	-8
CC(C)(C)c1ccc(CNC(=O)C2CCCN2C(=O)Nc2ccccc2)cc1 (configuration not stated)	108	102	-11	·
CC(=O)Nc1ccc(Nc2ccccc2)cc1	102	102	15	-5
O=C(c1ccc(Br)cc1)N(c1ccccn1)C1CCCCC1	102	94	-3	·
O=C(Nc1nc2c(s1)CCCC2)c1ccncc1	101	101	0	15
Cc1ccc(S(=O)(=O)N2CCN(C(=O)CN3CCOCC3)C2C(C)C)cc1 (configuration not stated)	99	103	-13	-5
CC(C)N1C(=O)C(O)(CC(=O)c2ccccc2O)c2ccccc21 (configuration not stated)	108	113	-14	·
CCN(/C=N/c1sc2c(c1C#N)CCCCC2)CC	104	100	-24	0
O=S(=O)(c1cccc2cccnc12)N1CCN(Cc2ccc3c(c2)OCO3)CC1	101	104	7	-4

Copied from the list:
Under MbtI inh, CC(C)c1c(Br)c(=O)oc2c3c4c(cc12)CCCN4CCC3 has the entry 5
Under PV pol inh, CC(C)C(=O)NCc1n[nH]c(=O)c2ccccc12 has the entry 104
Under MbtI inh, CC1CCN(CCCNC(=O)c2cc3c(=O)n(C)c4ccccc4c3s2)CC1 has the entry 45
Under PV pol inh, CC(C)(C)c1ccc(CNC(=O)C2CCCN2C(=O)Nc2ccccc2)cc1 (configuration not stated) has the entry 108
Under PV pol inh, Cc1cc(Cl)ccc1OC(=O)c1sccc1C has the entry 101

The results go on:
SMILES	PV pol inh	PV pol inh intensity	MenB inh	MbtI inh
CCCCCn1c(Sc2nc3ccccc3c(C)c2C#N)n[nH]c1=O	102	98	-4	·
C=CCNC(=S)N1CCN(C(c2ccccc2)c2ccccc2)CC1	102	106	-35	-3
Nc1nc2cc3c(cc2s1)OCCO3	101	99	-5	14
C[N+](C)(CCC#N)Cc1cccc2ccccc12	106	109	-13	·
CS(=O)(=O)Cc1cccc(C(=O)N2CCc3ccccc32)c1	105	118	1	18
CCn1cc(-c2n[nH]c(=S)n2C)c2ccccc21	102	103	-15	5
CC(C)(C)c1cc(C(C)(C)C)c2oc(C(=O)O)cc(=O)c2c1	103	102	-20	47
O=C(Cc1c[nH]c2ccccc12)OCCOc1ccccc1	104	102	2	2
CCC(=O)NC(C)C(c1cccs1)N1CCOCC1 (configuration not stated)	105	96	-20	-6
CCn1c2[n+](c3ccccc3c1=O)CCC2	101	105	·	-1
Brc1ccc(-c2cc3n(n2)CCc2nc4ccccc4n2-3)cc1	106	105	-9	-17

Two entries from above in a different format:
molecule | PV pol inh | PV pol inh intensity | MenB inh | MbtI inh
O=C(Cc1c[nH]c2ccccc12)OCCOc1ccccc1 | 104 | 102 | 2 | 2
CCC(=O)NC(C)C(c1cccs1)N1CCOCC1 (configuration not stated) | 105 | 96 | -20 | -6

Entries of single compounds as entered above. Order of screens: PV pol inh	PV pol inh intensity	MenB inh	MbtI inh
O=S(=O)(c1cccc2cccnc12)N1CCN(Cc2ccc3c(c2)OCO3)CC1 is entered as 101	104	7	-4
Cc1ccc(S(=O)(=O)N2CCN(C(=O)CN3CCOCC3)C2C(C)C)cc1 (configuration not stated) is entered as 99	103	-13	-5
CC1CCCC(C)N1C(=O)c1cc2sccc2n1Cc1ccc(F)cc1 (configuration not stated) is entered as 102	98	-96	4
O=C(NCC1COc2ccccc2O1)c1cccs1 (configuration not stated) is entered as 103	106	-22	-8
CCN(/C=N/c1sc2c(c1C#N)CCCCC2)CC is entered as 104	100	-24	0

Assay outcomes: PubChem, ICCB-Longwood Screening Facility, Harvard Medical School
